Ecoli rRNA inh = selective bacterial rRNA inhibition in E. coli | 350,000 compounds, 1.6% hits | E. coli WT GFP vs humanized-ribosome RFP mutants, fluorescence, 24 h; hits give low values; DMSO median 0, no signal -100 | GFP signal change (wild-type ribosome), % (concentration not given with the values) | AID 720706;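 active = significant combined selectivity score with lowered wild-type GFP, culture density cut under 30%, mutant RFP and density less affected; inactive = any of these conditions unmet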; note: one replicate is shown; some compounds called inactive have numbers as strong as hits
MLL AF4-AF9 inh = MLL-AF4/AF9 protein interaction inhibition; AlphaScreen, biotin-AF4 peptide binding to FLAG-AF9; inhibition, % at 10 µM; P42568; AID 651704; 350,000 compounds, 0.47% hits;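 active = every replicate reaching a set inhibition limit, whatever the replicate mean, cut at about 25% in these data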;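 note: 0% = plate neutral control median and 100% = total signal loss; the record names both 10 and 1 µM as test concentration; the first replicate is given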
Target sequence (P42568 whole entry, looked up): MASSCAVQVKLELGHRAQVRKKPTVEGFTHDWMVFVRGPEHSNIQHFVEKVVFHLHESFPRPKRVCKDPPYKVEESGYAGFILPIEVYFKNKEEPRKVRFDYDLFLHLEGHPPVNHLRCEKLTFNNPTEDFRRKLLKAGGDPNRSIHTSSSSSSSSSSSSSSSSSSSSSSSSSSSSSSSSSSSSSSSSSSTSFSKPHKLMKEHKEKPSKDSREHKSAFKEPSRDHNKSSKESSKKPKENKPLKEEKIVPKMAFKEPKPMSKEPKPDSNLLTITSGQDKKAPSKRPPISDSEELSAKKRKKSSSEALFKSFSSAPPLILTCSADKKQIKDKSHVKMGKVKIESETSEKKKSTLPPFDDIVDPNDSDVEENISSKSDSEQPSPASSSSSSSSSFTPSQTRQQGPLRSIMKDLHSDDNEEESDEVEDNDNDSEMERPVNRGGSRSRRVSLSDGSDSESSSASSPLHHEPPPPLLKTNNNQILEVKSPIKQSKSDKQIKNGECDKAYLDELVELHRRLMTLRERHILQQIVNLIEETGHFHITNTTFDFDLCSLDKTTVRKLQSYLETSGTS
FGF22 binding = shifts melting point of recombinant human FGF22; calls only at 9.99 µM; recombinant FGF22 thermal shift, SYPRO orange fluorescence; percent of sucrose octasulfate shift, DMSO zero; 340,000 compounds, 1.5% hits; AID 651658; Q9HCT0;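 active = melting point raised past a set limit in the mean and every replicate; three in four hits are not shown here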
Target sequence (Q9HCT0 whole entry, looked up): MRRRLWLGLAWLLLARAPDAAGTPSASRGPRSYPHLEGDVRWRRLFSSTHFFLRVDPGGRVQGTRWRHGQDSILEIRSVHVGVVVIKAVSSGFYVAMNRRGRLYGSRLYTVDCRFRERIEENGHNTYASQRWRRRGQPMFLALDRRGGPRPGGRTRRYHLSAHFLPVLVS
Ecoli rRNA inh OD600 = second read-out of Ecoli rRNA inh, no call of its own (marks repeat the call); OD600 change, %; measured here: OD600 growth;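 optical density of the mix in the first replicate; 0 = DMSO median and -100 = no signal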
Ecoli rRNA inh RFP = second read-out of Ecoli rRNA inh, no call of its own (marks repeat the call); RFP signal change, %; measured here: RFP humanized mutant strains;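 first replicate; 0 = DMSO median and -100 = no signal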
Active calls of the source: *. An excerpt (hit frequency here may not be typical).

How did C[C@H](CO)N1C[C@H](C)[C@@H](CN(C)CC2CC2)Oc2c(NS(=O)(=O)c3cccs3)cccc2C1=O do in these assays?
Ecoli rRNA inh: 0; MLL AF4-AF9 inh: -3.1; FGF22 binding: inactive; Ecoli rRNA inh OD600: 1; Ecoli rRNA inh RFP: -0.1

What do the screens show for `CNC[C@H]1OCCCC[C@@H](C)Oc2ccc(NC(=O)Nc3ccc(F)cc3)cc2C(=O)N([C@@H](C)CO)C[C@H]1C`?
Ecoli rRNA inh: 1; MLL AF4-AF9 inh: 3.5; FGF22 binding: inactive; Ecoli rRNA inh OD600: -1; Ecoli rRNA inh RFP: -0.8

Results for Cc1noc(C)c1NC(=O)Nc1cccc2c1O[C@@H](CN(C)S(=O)(=O)c1ccc(Cl)cc1)[C@H](C)CN([C@@H](C)CO)C2=O ?
Ecoli rRNA inh: 1; MLL AF4-AF9 inh: 0.3; FGF22 binding: inactive; Ecoli rRNA inh OD600: 3; Ecoli rRNA inh RFP: -2.6

What do the screens show for `Cc1noc(C)c1NC(=O)Nc1ccc2c(c1)C(=O)N([C@@H](C)CO)C[C@H](C)[C@@H](CN(C)Cc1ccc(C(F)(F)F)cc1)O2`?
Ecoli rRNA inh: 4; MLL AF4-AF9 inh: -3.9; FGF22 binding: inactive; Ecoli rRNA inh OD600: 0; Ecoli rRNA inh RFP: 18

How did CCS(=O)(=O)Nc1ccc2c(c1)C(=O)N(C)C[C@H](OC)[C@@H](C)CN(C(=O)C1CC1)[C@H](C)CO2 do in these assays?
Ecoli rRNA inh: 3; MLL AF4-AF9 inh: 0.1; FGF22 binding: inactive; Ecoli rRNA inh OD600: 3; Ecoli rRNA inh RFP: -3.1

What do the screens show for `CCNC(=O)C[C@@H]1CC[C@@H]2[C@@H](COc3ccc(NC(=O)Nc4ccccc4Cl)cc3C(=O)N2C)O1`?
Ecoli rRNA inh: -2; MLL AF4-AF9 inh: -0.8; FGF22 binding: inactive; Ecoli rRNA inh OD600: -12; Ecoli rRNA inh RFP: 1.2

What do the screens show for `CCCC(=O)Nc1ccc2c(c1)OC[C@@H](C)N(C(=O)c1cnccn1)C[C@H](C)[C@H](OC)CN(C)C2=O`?
Ecoli rRNA inh: 0; MLL AF4-AF9 inh: -0.5; FGF22 binding: inactive; Ecoli rRNA inh OD600: -1; Ecoli rRNA inh RFP: 1.4

What do the screens show for `COCC(=O)Nc1ccc2c(c1)OC[C@@H](C)N(C(=O)COC)C[C@@H](C)[C@H](OC)CN(C)C2=O`?
Ecoli rRNA inh: 2; MLL AF4-AF9 inh: -0.1; FGF22 binding: inactive; Ecoli rRNA inh OD600: -1; Ecoli rRNA inh RFP: -0.3

What do the screens show for `CC(=O)N1[C@@H](CO)[C@@H]2c3ccccc3N(C(=O)c3ccccc3)C[C@@H]21`?
Ecoli rRNA inh: 6; MLL AF4-AF9 inh: -0.6; FGF22 binding: inactive; Ecoli rRNA inh OD600: -2; Ecoli rRNA inh RFP: -0.9

Results for COC1=C(OC)C(=O)C(Sc2ccc3ccccc3c2)=CC1=O ?
Ecoli rRNA inh: -3; MLL AF4-AF9 inh: 0.8; FGF22 binding: inactive; Ecoli rRNA inh OD600: 7; Ecoli rRNA inh RFP: 1.7

An excerpt from above in order of molecular weight, falling.
What do the screens show for `Cc1noc(C)c1NC(=O)Nc1ccc2c(c1)C(=O)N([C@@H](C)CO)C[C@H](C)[C@@H](CN(C)Cc1ccc(C(F)(F)F)cc1)O2`?
Ecoli rRNA inh: 4; MLL AF4-AF9 inh: -3.9; FGF22 binding: inactive; Ecoli rRNA inh OD600: 0; Ecoli rRNA inh RFP: 18

How did C[C@H](CO)N1C[C@H](C)[C@@H](CN(C)CC2CC2)Oc2c(NS(=O)(=O)c3cccs3)cccc2C1=O do in these assays?
Ecoli rRNA inh: 0; MLL AF4-AF9 inh: -3.1; FGF22 binding: inactive; Ecoli rRNA inh OD600: 1; Ecoli rRNA inh RFP: -0.1

How did CCS(=O)(=O)Nc1ccc2c(c1)C(=O)N(C)C[C@H](OC)[C@@H](C)CN(C(=O)C1CC1)[C@H](C)CO2 do in these assays?
Ecoli rRNA inh: 3; MLL AF4-AF9 inh: 0.1; FGF22 binding: inactive; Ecoli rRNA inh OD600: 3; Ecoli rRNA inh RFP: -3.1

Going on with the list:
How did C[C@@H]1CN([C@H](C)CO)C(=O)Cc2cc(NC(=O)CCN3CCOCC3)ccc2O[C@@H]1CN(C)C(=O)Nc1cccc2ccccc12 do in these assays?
Ecoli rRNA inh: 1; MLL AF4-AF9 inh: -1.2; FGF22 binding: inactive; Ecoli rRNA inh OD600: 6; Ecoli rRNA inh RFP: -1.3

What do the screens show for `COc1ccc(C#Cc2ccc([C@H]3[C@@H](CO)N4C(=O)CN(C(=O)C5CCOCC5)C[C@@H]34)cc2)cc1`?
Ecoli rRNA inh: 2; MLL AF4-AF9 inh: 3.0; FGF22 binding: inactive; Ecoli rRNA inh OD600: -2; Ecoli rRNA inh RFP: -0.9

What do the screens show for `O=C1OC(COCC#Cc2ccccc2)CN1c1ccccc1` (configuration not stated)?
Ecoli rRNA inh: 9; MLL AF4-AF9 inh: -2.2; FGF22 binding: inactive; Ecoli rRNA inh OD600: -42; Ecoli rRNA inh RFP: -8.6

How did CO[C@H]1CN(C)C(=O)c2ccc(NS(=O)(=O)c3cn(C)cn3)cc2OC[C@H](C)N(CC2CC2)C[C@H]1C do in these assays?
Ecoli rRNA inh: 2; MLL AF4-AF9 inh: -2.4; FGF22 binding: inactive; Ecoli rRNA inh OD600: 9; Ecoli rRNA inh RFP: -2.6

What do the screens show for `CO[C@H]1CN(C)C(=O)c2ccc(NS(=O)(=O)c3cccc(C)c3)cc2OC[C@@H](C)NC[C@H]1C`?
Ecoli rRNA inh: 5; MLL AF4-AF9 inh: -2.4; FGF22 binding: inactive; Ecoli rRNA inh OD600: 3; Ecoli rRNA inh RFP: -0.5

What do the screens show for `CNC(=O)C[C@@H]1CC[C@H]2[C@H](COc3ccc(NS(=O)(=O)c4ccccc4C)cc3C(=O)N2C)O1`?
Ecoli rRNA inh: -3; MLL AF4-AF9 inh: -0.6; FGF22 binding: inactive; Ecoli rRNA inh OD600: -7; Ecoli rRNA inh RFP: 0.0

Results for CC1(Oc2cccc(F)c2)CCN(Cc2ccc(-c3ccccc3)o2)C1 (configuration not stated) ?
Ecoli rRNA inh: 2; MLL AF4-AF9 inh: -3.3; FGF22 binding: inactive; Ecoli rRNA inh OD600: 8; Ecoli rRNA inh RFP: 2.7

How did C[C@H]1CN([C@@H](C)CO)C(=O)c2cc(NS(=O)(=O)c3ccccc3)ccc2O[C@@H]1CN(C)S(C)(=O)=O do in these assays?
Ecoli rRNA inh: 4; MLL AF4-AF9 inh: 1.4; FGF22 binding: inactive; Ecoli rRNA inh OD600: 6; Ecoli rRNA inh RFP: -0.3

Results for C[C@H](CO)N1C[C@H](C)[C@H](CN(C)S(=O)(=O)c2ccc(Cl)cc2)Oc2c(NS(C)(=O)=O)cccc2C1=O ?
Ecoli rRNA inh: 1; MLL AF4-AF9 inh: -4.2; FGF22 binding: inactive; Ecoli rRNA inh OD600: 4; Ecoli rRNA inh RFP: 2.5

What do the screens show for `O=C(CNC(=O)COc1ccccc1)NCCN1CCOCC1`?
Ecoli rRNA inh: 2; MLL AF4-AF9 inh: 0.0; FGF22 binding: inactive; Ecoli rRNA inh OD600: 15; Ecoli rRNA inh RFP: -2.2

Results for C[C@H](CO)N1C[C@H](C)[C@@H](CN(C)Cc2ccncc2)Oc2ncc(C#CC3CC3)cc2C1=O ?
Ecoli rRNA inh: -4; MLL AF4-AF9 inh: 1.5; FGF22 binding: inactive; Ecoli rRNA inh OD600: 5; Ecoli rRNA inh RFP: 0.4

How did COc1ccc(NC(=O)Nc2ccc3c(c2)CC(=O)N([C@H](C)CO)C[C@@H](C)[C@H](CN(C)S(=O)(=O)c2c(C)noc2C)O3)cc1 do in these assays?
Ecoli rRNA inh: 1; MLL AF4-AF9 inh: 7.1; FGF22 binding: inactive; Ecoli rRNA inh OD600: -9; Ecoli rRNA inh RFP: -0.8

How did CCCS(=O)(=O)NC(=O)C1(C)CCN(C(=O)c2cccs2)C1 (configuration not stated) do in these assays?
Ecoli rRNA inh: 8; MLL AF4-AF9 inh: 3.8; FGF22 binding: inactive; Ecoli rRNA inh OD600: 18; Ecoli rRNA inh RFP: -1.5

Results for C[C@@H]1CCCCO[C@@H](CN(C)C(=O)Nc2ccc(F)cc2)[C@@H](C)CN([C@@H](C)CO)C(=O)c2cc(NC(=O)Nc3ccccc3)ccc2O1 ?
Ecoli rRNA inh: 4; MLL AF4-AF9 inh: 2.1; FGF22 binding: inactive; Ecoli rRNA inh OD600: 7; Ecoli rRNA inh RFP: 0.8

Results for N#C[C@H]1[C@H](c2ccc(-c3cccc(F)c3)cc2)[C@H](CO)N1C(=O)c1cccnc1 ?
Ecoli rRNA inh: -5; MLL AF4-AF9 inh: -1.0; FGF22 binding: inactive; Ecoli rRNA inh OD600: 5; Ecoli rRNA inh RFP: -3.2

What do the screens show for `CO[C@H]1CN(C)C(=O)c2cc(NC(=O)C3CCC3)ccc2OC[C@H](C)N(Cc2nccs2)C[C@@H]1C`?
Ecoli rRNA inh: 2; MLL AF4-AF9 inh: -0.6; FGF22 binding: inactive; Ecoli rRNA inh OD600: 3; Ecoli rRNA inh RFP: -2.1

How did C[C@H](CO)N1C[C@H](C)[C@@H](CN(C)C(=O)Nc2ccc(C(F)(F)F)cc2)Oc2ccc(NC(=O)C3CCCCC3)cc2CC1=O do in these assays?
Ecoli rRNA inh: -7; MLL AF4-AF9 inh: -0.4; FGF22 binding: inactive; Ecoli rRNA inh OD600: -11; Ecoli rRNA inh RFP: 0.7

How did O=C1OC(c2ccc(F)cc2)CC1CN1CCOCC1 (configuration not stated) do in these assays?
Ecoli rRNA inh: 13; MLL AF4-AF9 inh: -2.9; FGF22 binding: inactive; Ecoli rRNA inh OD600: 13; Ecoli rRNA inh RFP: 4.5

How did CO[C@H]1CN(C)C(=O)c2cc(NS(=O)(=O)c3cn(C)cn3)ccc2OC[C@@H](C)NC[C@@H]1C do in these assays?
Ecoli rRNA inh: 2; MLL AF4-AF9 inh: -3.1; FGF22 binding: inactive; Ecoli rRNA inh OD600: 8; Ecoli rRNA inh RFP: -2.2

How did C[C@@H]1CCCCO[C@H](CN(C)Cc2ccc(C(F)(F)F)cc2)[C@H](C)CN([C@H](C)CO)C(=O)c2cc(NC(=O)c3ccccc3)ccc2O1 do in these assays?
Ecoli rRNA inh: -2; MLL AF4-AF9 inh: -0.3; FGF22 binding: inactive; Ecoli rRNA inh OD600: -2; Ecoli rRNA inh RFP: 1.4

What do the screens show for `COc1ccc2c3c(n(C)c2c1)[C@H](CO)N(C)CC31CCN(S(=O)(=O)c2cccc(C)c2)CC1`?
Ecoli rRNA inh: -5; MLL AF4-AF9 inh: -3.8; FGF22 binding: inactive; Ecoli rRNA inh OD600: -24; Ecoli rRNA inh RFP: 1.5

How did C[C@@H]1CN([C@@H](C)CO)C(=O)c2cccc(NC(=O)C3CC3)c2O[C@@H]1CN(C)Cc1ccc(C(=O)O)cc1 do in these assays?
Ecoli rRNA inh: 7; MLL AF4-AF9 inh: -3.1; FGF22 binding: inactive; Ecoli rRNA inh OD600: 6; Ecoli rRNA inh RFP: -2.2

Results for O=C(CN1CCOCC1)N[C@H]1CC[C@H](CCNC(=O)C2CCC2)O[C@H]1CO ?
Ecoli rRNA inh: 1; MLL AF4-AF9 inh: 43*; FGF22 binding: inactive; Ecoli rRNA inh OD600: -5; Ecoli rRNA inh RFP: -1.3

How did COc1ccc(NC(=O)Nc2ccc3c(c2)CC(=O)N([C@H](C)CO)C[C@@H](C)[C@@H](CN(C)S(=O)(=O)c2cn(C)cn2)O3)cc1 do in these assays?
Ecoli rRNA inh: 2; MLL AF4-AF9 inh: -2.2; FGF22 binding: inactive; Ecoli rRNA inh OD600: 6; Ecoli rRNA inh RFP: 0.0

Results for O=C(C[C@@H]1CC[C@@H]2[C@H](COC[C@H](O)CN2C(=O)c2ccc(F)cc2)O1)N1CCOCC1 ?
Ecoli rRNA inh: 3; MLL AF4-AF9 inh: -2.5; FGF22 binding: inactive; Ecoli rRNA inh OD600: 7; Ecoli rRNA inh RFP: -1.6

Results for C[C@H]1CN([C@@H](C)CO)C(=O)c2cc(C3=CCCCC3)cnc2O[C@@H]1CN(C)C(=O)c1ccccn1 ?
Ecoli rRNA inh: 3; MLL AF4-AF9 inh: -1.4; FGF22 binding: inactive; Ecoli rRNA inh OD600: 6; Ecoli rRNA inh RFP: -1.6

Results for Cn1cnc(CCNC(=O)C[C@H]2CC[C@H]3[C@@H](COC[C@H](O)CN3C(=O)Nc3ccc(F)cc3)O2)c1 ?
Ecoli rRNA inh: 2; MLL AF4-AF9 inh: -0.2; FGF22 binding: inactive; Ecoli rRNA inh OD600: -4; Ecoli rRNA inh RFP: 3.7

How did COc1ccc(S(=O)(=O)N(C)C[C@H]2OCCCC[C@H](C)Oc3ccc(NC(=O)Nc4c(C)noc4C)cc3C(=O)N([C@@H](C)CO)C[C@@H]2C)cc1 do in these assays?
Ecoli rRNA inh: 0; MLL AF4-AF9 inh: 1.0; FGF22 binding: inactive; Ecoli rRNA inh OD600: 0; Ecoli rRNA inh RFP: 0.4

Compound activity (PubChem)
